SARS PLP yeast: inhibitors of SARS-CoV papain-like protease in yeast; S. cerevisiae expressing SARS-CoV PLpro, growth rescue; control for the full effect not named in the record; 330,000 compounds, 0.19% hits; Potency, µM (doses to about 32.9 µM), for the others: at the top dose activity, positive = growth rescue; AID 485353; active means well fitted rising curve with a large enough effect; inconclusive means small, poorly fitted or top-dose-only effect; inactive means no such curve, though single readings can be large or run the other way; also: 0% is about no effect; nearly all actives have a fitted effect of over 55% in size; growth read by luminescence after 48 h
RE007 growth inh: less growth of the S. pombe RE007 Vpr strain; S. pombe RE007 Vpr strain, BacTiter-Glo ATP luminescence, 24 h; control for the full effect not named in the record; Potency, µM (top dose mostly 92.2 µM), without a hit: at the top dose activity change, negative = less growth; 360,000 compounds, 0.21% hits; AID 651644; active = well fitted falling curve with a large enough effect; inconclusive = small, poorly fitted or top-dose-only effect; inactive = no such curve, though single readings can be large or run the other way;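 also: % is scaled to controls: 0 for no effect and ±100 for the full control effect; nearly all actives have a fitted effect of over 50% in size; the assay follows cell death caused by Vpr and the record does not say whether a fall means rescue or toxicity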
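Fission yeast RE007 carrying one integrated HIV-1 vpr copy, seeded at OD 0.01 in PMG+AL medium with 23 nL pinned compound. Grown 24 h at 30 degrees; viability read by BacTiter-Glo luminescence after 5 min.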
Cruzain noTriton: cruzain (T. cruzi) inhibition without detergent. 200,000 compounds, 2.3% hits. AID 1476. Potency, µM, inactives show max response, negative = inhibition, usual class: inhibitors. purified cruzain, Z-FR-AMC fluorescence, no detergent. P25779;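 also: plate controls were enzyme without inhibitor for no effect and buffer without enzyme for full effect; nearly all actives have a fitted effect of over 40% in size; top concentration of the series not given in the record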
Target sequence (P25779 123-467 limits assumed): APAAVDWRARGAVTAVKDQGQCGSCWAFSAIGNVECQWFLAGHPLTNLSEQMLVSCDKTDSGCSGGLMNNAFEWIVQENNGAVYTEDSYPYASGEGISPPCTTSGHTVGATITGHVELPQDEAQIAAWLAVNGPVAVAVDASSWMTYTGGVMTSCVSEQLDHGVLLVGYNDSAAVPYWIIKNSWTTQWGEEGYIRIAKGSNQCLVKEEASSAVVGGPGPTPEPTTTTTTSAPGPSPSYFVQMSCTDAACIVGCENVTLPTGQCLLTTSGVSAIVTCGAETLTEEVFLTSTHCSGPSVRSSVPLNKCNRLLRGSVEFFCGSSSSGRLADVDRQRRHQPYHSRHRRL
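Detergent-free condition (0.00005% Triton X-100) in acetate buffer pH 5.5 with DTT. 1.5 nM enzyme and compound were pre-mixed 15 min, then 2 uM Z-FR-AMC substrate added; reaction progress from fluorescence change between first and third reads (60 s).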
StopGo reporter: FMDV 2A StopGo reporter, luciferase signal; human cells with a luciferase reporter of 2A StopGo recoding; control for the full effect not named in the record; Potency, µM (doses to about 57.9 µM), for inactives: at the top dose signal change, negative = less light; 410,000 compounds, 1.2% hits; active = well fitted falling curve with a large enough effect; inconclusive = small, poorly fitted or top-dose-only effect; inactive = no such curve, though single readings can be large or run the other way; tested in HEK293T cells; also: % is scaled to controls: 0 for no effect and ±100 for the full control effect; nearly all actives have a fitted effect of over 45% in size; luciferase light after 4 h
Lassa entry inh: blocks Lassa virus binding to or entry into cells; Lassa virus pseudotype entry inhibition, cell reporter; control for the full effect not named in the record; Potency, µM (series often up to 37.9 µM), without a hit: top-dose activity change, negative = inhibition, actives largely listed as inhibitors; 300,000 compounds, 1.2% hits; AID 540256; active means well fitted inhibition curve with a large enough effect; inconclusive means small, poorly fitted or top-dose-only effect, or effect the other way; inactive means flat fitted curve, though single readings scatter; tested in HEK293 cells; also: % is scaled to controls: 0 for no effect and ±100 for the full control effect; nearly all actives have a fitted effect of over 50% in size; luciferase read-out
NS1 inh: influenza NS1 inhibition; S. cerevisiae slowed by influenza A NS1, growth recovery by OD600; Potency, µM (series often up to 46.1 µM), for the others: at the top dose activity, positive = more growth; 270,000 compounds, 0.4% hits; AID 2326; active means well fitted rising curve with a large enough effect; inconclusive means small, poorly fitted or top-dose-only effect; inactive means no such curve, though single readings can be large or run the other way; also: nearly all actives have a fitted effect of over 50% in size
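Read-out: OD600 growth recovery of NS1-expressing budding yeast. Cells grown overnight at 30C in -URA glucose medium, washed, resuspended and diluted 1:100 in 2% galactose assay medium, pH 6.0. Same strain lacking NS1 served as positive control.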
Cruzain inh Det: inhibitors of Trypanosoma cruzi cruzain with detergent. Potency, µM, without a hit: max response, negative = inhibition, usual class: inhibitors. purified cruzain, Z-FR-AMC fluorescence, 0.01% Triton. 200,000 compounds, 0.43% hits. P25779;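 also: plate controls were neutral wells for no effect and buffer without enzyme for full effect; nearly all actives have a fitted effect of over 40% in size; top concentration of the series not given in the record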
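15 min RT preincubation of 1.5 nM cruzain with compound, then 2 uM Z-FR-AMC added; kinetic AMC fluorescence, 60 s delta. Triton X-100 0.01%, pH 5.5.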
MARV entry inh: Marburg virus entry inhibition; Marburg virus pseudotyped entry inhibition, cell reporter; control for the full effect not named in the record; about a third of the inactives were read at about 46 µM; Potency, µM (highest dose often 37.8 µM), inactives show at the highest dose activity change, negative = inhibition, most hits filed as inhibitors; 300,000 compounds, 1.8% hits; AID 540276; active = well fitted inhibition curve with a large enough effect; inconclusive = small, poorly fitted or top-dose-only effect, or effect the other way; inactive = flat fitted curve, though single readings scatter; tested in HEK293 cells; about a fifth of its hits are not listed in these tables; also: % is scaled to controls: 0 for no effect and ±100 for the full control effect; luciferase read-out
* hit, by the source's call; ? = inconclusive; / = no result given; & = joins results of further samples; [ ] = remark or other dose. Unless noted, calls follow the shape of the dose curve; as a rule, active = well fitted curve in the direction sought with a large enough effect; inconclusive = small, poorly fitted or top-dose-only effect, or another doubt; inactive = no such curve, though single readings can be large; an effect the other way counts as inactive or inconclusive. Potency is read from the fitted curve at half-maximal effect. No enrichment for hits; any-hit rate near 4.7%.

structure	RE007 growth inh	NS1 inh	Lassa entry inh	Cruzain inh Det	StopGo reporter	Cruzain noTriton	SARS PLP yeast	MARV entry inh
N#CCCn1c(SCC(=O)N2CCN(S(=O)(=O)c3ccccc3)CC2)nc2ccccc21	15%	-8%	-17%	-7.6%	-12%	0%	-2%	1%&-1%
Cc1cc2ccccc2n1CCNC(=O)Cc1cccc2ccccc12	0%	13%	/	-8.2%	-27%	-29%	-4%	/
COC(=O)c1sccc1NC(=O)c1ccc(C(C)C)cc1	2%	-15%	-19%	/	35%[activator]	/	-11%	2%
Cc1oc(-c2cccs2)nc1CN1CCN(CCC(C)C)C(CCO)C1 (stereo not given)	-11%	2%	4%	/	4%	/	1%	?
CCOC(=O)C1=C(COC(=O)[C@H](C)NS(=O)(=O)c2ccccc2F)NC(=O)NC1C (stereo not given in full)	-14%	/	-9%	/	2%	/	3%	10%
O=C(O)c1cccc(COCC(F)(F)C(F)F)c1	-7%	4%	20%	-0.1%	15%	1%	-5%	3%
CC1CCCN(CCCNC(=O)c2ccc(NC(=O)C3=CSCCO3)cc2)C1 (stereo not given)	2%	-6%	/	/	-6%	/	?	/
Cc1nc(-c2ccccc2)sc1CCNC(=O)C(=O)Nc1ccc(F)c(Cl)c1	/	/	3%[46.1 µM]	0.3%	-15%	1%	/	/
Cc1ccc(C)c(NC(=O)CCn2nc(C)c3c(C)n(-c4ccccc4)nc3c2=O)c1	/	/	18%[46.1 µM]	-2.1%	0%	11%	/	/
COCC1CCCCN1Cc1cn[nH]c1-c1ccc2cc(OC)ccc2c1 (stereo not given)	-23%	3%	/	/	16%	/	0%	/

structure	RE007 growth inh	NS1 inh	Lassa entry inh	Cruzain inh Det	StopGo reporter	Cruzain noTriton	SARS PLP yeast	MARV entry inh
Cc1cccc[n+]1C1C(c2ccc([N+](=O)[O-])cc2)C(C#N)=C(C(=C=[N-])C#N)NC1(O)C1CC1 (stereo not given)	-20%	/	/	/	-10%	/	-4%	1%
O=C(NC(=S)N(Cc1ccccc1)c1ccccn1)C1CCCCC1	-16%	15%	12%	-1.4%	19%	3%	-12%	?
CC1(C)Cc2nc3sc(C(=O)NCCCO)c(N)c3cc2CO1	15%	4%	/	/	38%	/	0%	/
NC(=O)c1sc2nc(-c3cccnc3)ccc2c1N	-8%	-2%	18%[46.1 µM]	/	33%[activator]	/	-2%	?
Cc1ccc(NC(=O)CN2C(=O)CSC2=O)cc1	5%	8%	-5%	-1.0%	24%	-1%	-2%	-14%
Cc1ccc(/C=C2\S/C(=N/S(=O)(=O)c3cccs3)NC2=O)cc1	13%	-4%	/	/	-4%	/	-1%	/
CC(C)CCNC(=O)CN(C(=O)Cn1nnc(-c2ccccc2F)n1)c1cccc2c1CCCC2	-11%[3.69 µM]	?	-2%	-5.6%	-7%	-2%	-6%	8%
COCCCNC(=S)N1CCN(c2ccccc2)CC1	-9%	/	2%	/	-7%	/	-4%	?
COc1ccc2oc(=O)c(C(=O)N3CCN(c4ccccc4)CC3)cc2c1	9%	-17%	1%	-4.3%	/	7%	3%	27%
COCCNC(=O)C(c1ccc(F)cc1)N(Cc1ccccc1)C(=O)CCC(=O)Nc1nccs1 (stereo not given)	-21%	-12%	-9%	/	-10%	/	-4%	-16%[46.1 µM]

Three of these compounds in another layout.
> Cc1cccc[n+]1C1C(c2ccc([N+](=O)[O-])cc2)C(C#N)=C(C(=C=[N-])C#N)NC1(O)C1CC1 (stereo not given)
  RE007 growth inh = -20%
  NS1 inh = /
  Lassa entry inh = /
  Cruzain inh Det = /
  StopGo reporter = -10%
  Cruzain noTriton = /
  SARS PLP yeast = -4%
  MARV entry inh = 1%

> O=C(NC(=S)N(Cc1ccccc1)c1ccccn1)C1CCCCC1
  RE007 growth inh = -16%
  NS1 inh = 15%
  Lassa entry inh = 12%
  Cruzain inh Det = -1.4%
  StopGo reporter = 19%
  Cruzain noTriton = 3%
  SARS PLP yeast = -12%
  MARV entry inh = ?

> CC1(C)Cc2nc3sc(C(=O)NCCCO)c(N)c3cc2CO1
  RE007 growth inh = 15%
  NS1 inh = 4%
  Lassa entry inh = /
  Cruzain inh Det = /
  StopGo reporter = 38%
  Cruzain noTriton = /
  SARS PLP yeast = 0%
  MARV entry inh = /

Continuation:
structure	RE007 growth inh	NS1 inh	Lassa entry inh	Cruzain inh Det	StopGo reporter	Cruzain noTriton	SARS PLP yeast	MARV entry inh
O=C1c2ccccc2S(=O)(=O)N1CC1CC(c2ccccc2)=NO1 (stereo not given)	13%	-36%	?	-2.5%	-8%	-8%	17%	11%
COc1ccccc1C(=O)COC(=O)C(CCSC)NC(=O)COc1ccccc1 (stereo not given)	-29%	/	-4%[46.1 µM]	/	7%	/	0%	9%
Cc1nn(C)c2c1c(C(F)(F)F)cc(=O)n2C(C)C(=O)Nc1ccccc1F (stereo not given)	/	/	8%[46.1 µM]	-1.2%	?	?	/	/
CCCCCCC(=O)Nc1nc(C)c(-c2csc(Nc3cc(OC)ccc3OC)n2)s1	4%	13%	/	-2.1%	-19%	10µM*	?	-2%
COc1ccc(-c2nnc3n(CCc4ccccc4)c(=O)c4ccccc4n23)cc1OC	6%	-11%	-28%	-3.2%	0%	?	5%	-12%
COC(=O)c1ccsc1NC(=O)CSc1nnnn1-c1ccccc1SC	-11%	-4%	-12%	0.7%	?	-25%	6%	?
Cc1cccc(NC(=O)c2ccco2)c1C(=O)O	4%	1%	2%[46.1 µM]	/	4%	/	1%	?
CC(C)(C)C(=O)NC(=S)NNC(=O)c1ccc(-c2ccccc2)cc1	-6%	-70%	/	/	-14%	/	-5%	/
CC(=O)Nc1ccc(S(=O)(=O)NNC(=O)c2cccc([N+](=O)[O-])c2)cc1	-1%	3%	/	/	-16%	/	-4%	/
CN1CCN(C(=O)C23CC4CC(C)(CC(C)(C4)C2)C3)CC1	-14%	-5%	/	/	-20%	/	0%	/

structure	RE007 growth inh	NS1 inh	Lassa entry inh	Cruzain inh Det	StopGo reporter	Cruzain noTriton	SARS PLP yeast	MARV entry inh
CC(C)OCCCNC(=O)Cc1ccc(F)cc1	7%	/	-1%[46.1 µM]	/	-13%	/	1%	-8%[46.1 µM]
CCC(C)c1ccccc1N1CC(C(=O)Nc2cc(S(=O)(=O)N3CCOCC3)ccc2OC)CC1=O (stereo not given)	-2%	/	12%[46.1 µM]	/	-9%	/	/	-1%[46.1 µM]
Cc1ccccc1CCNC(=O)c1ccc2c(c1)nc1n2CCC(C)C1 (stereo not given)	/	/	?	4.6%	-20%	-10%	/	/
CC(=O)Nc1c(O)nc(C)[nH]c1=O	7%	5%	/	/	-12%	/	3%	/
COc1ccc(-n2c(SCC#N)nnc2-c2ccc(NS(=O)(=O)c3ccc(C)cc3)cc2)cc1	10%	8%	?	-0.1%	-14%	-26%	5%	?
O=C(CC(c1ccccc1)c1ccccc1)Nc1ccncc1	-9%	-78%	?	/	19%	/	-1%	?
O=S(=O)(c1ccc(Cl)cc1)N1CCNCC1	5%	/	3%	/	-17%	/	-2%	9%
COCCSc1nnc(NC(=O)c2ccco2)s1	-10%	-33%	2%	/	62%[activator]	/	-9%	6%
CCOC(=O)c1cc(-c2ccccc2)n(CCC(=O)NC2CCCCC2)c1C	/	/	-10%[46.1 µM]	-0.8%	-2%	1%	/	/
C/C(=N\NC(=O)c1cc(-c2cccc([N+](=O)[O-])c2)n[nH]1)c1ccccc1O	22%	9%	?	-11%	-19%	?	17%	?

2 entries from above in another layout.
SMILES: O=C(CC(c1ccccc1)c1ccccc1)Nc1ccncc1
  RE007 growth inh: -9%; NS1 inh: -78%; Lassa entry inh: ?; Cruzain inh Det: /; StopGo reporter: 19%; Cruzain noTriton: /; SARS PLP yeast: -1%; MARV entry inh: ?
SMILES: Cc1ccccc1CCNC(=O)c1ccc2c(c1)nc1n2CCC(C)C1 (stereo not given)
  RE007 growth inh: /; NS1 inh: /; Lassa entry inh: ?; Cruzain inh Det: 4.6%; StopGo reporter: -20%; Cruzain noTriton: -10%; SARS PLP yeast: /; MARV entry inh: /

Other results
structure	RE007 growth inh	NS1 inh	Lassa entry inh	Cruzain inh Det	StopGo reporter	Cruzain noTriton	SARS PLP yeast	MARV entry inh
C=CCn1c(=O)/c(=C/c2cc(OC)c(OC)c(OC)c2)s/c1=C(/C#N)c1nc2ccccc2n1C	-14%	12%	?	0.6%	-24%	22%	0%	11%[46.1 µM]
O=c1c2[nH]c3ccc(F)cc3c2nc2n1CCCS2	1%	/	1%	/	1%	/	-5%	-1%
Cc1ccc(-c2nnc(N(C)C(=O)c3cccnc3)s2)cc1	-3%	-25%	-6%	-1.6%	4%	1%	-8%	-8%
O=C(NCc1ccc2c(c1)OCO2)C1CCN(Cc2cnn(-c3ccccc3)c2-n2cccc2)CC1	4%	-4%	?	-2.3%	-26%	-1%	/	?
COc1ccc(Cl)cc1C(=O)Nc1c2c(nn1-c1ccc(Cl)cc1)CS(=O)(=O)C2	/	/	11%[46.1 µM]	0.4%	0%	-11%	/	/
COc1ccc(/C=C2\Oc3cc(OC(=O)N4CCOCC4)ccc3C2=O)cc1	0%	1%	/	/	-15%	/	-2%	/
O=C(O)/C=C/c1cn(-c2ccccc2)nc1-c1ccccc1	-5%	-46%	/	/	17%	/	0%	/
CC(=O)c1ccc(N2C(=O)N(CC(=O)c3ccc(C)cc3)c3ccccc3S2(=O)=O)cc1	/	/	-9%[46.1 µM]	-0.3%	-16%	?	/	/
O=C(CSc1nnnn1C1CCCC1)N1CCN(C(=O)c2ccco2)CC1	1%	-6%	-4%	2.5%	13%	-6%	1%	-2%
COc1ccc(-c2nc3ccccc3n3c(-c4cccc(C)c4)c4c(=O)n(C)c(=O)n(C)c4c23)cc1OC	/	/	2%[46.1 µM]	-2.5%	?	1%	/	2%[46.1 µM]
COc1ccc(C(O)P(=O)(OCc2ccccc2)c2ccc(N(C)C)cc2)cc1 (stereo not given)	18%	0%	/	/	6%	/	-1%	/
Cc1cc(NC(=O)c2cccnc2)cc(-c2nc3cc(Cl)ccc3o2)c1O	/	/	0%[46.1 µM]	1.7%	-18%	-10%	/	3%[46.1 µM]
